Source: PubChem BioAssay
GIV Gai3 FP = inhibitors of GIV peptide binding to Galpha-i3, primary screen, biochemical, fluorescence polarization, FITC-GIV GBA peptide, rat Galphai3; Guanine nucleotide-binding protein G(i) subunit alpha-3 (Rattus norvegicus), P08753; 90 min; hits give low values; scaled: aluminum fluoride 0%, vehicle 100%; percent of control (FP), % (concentration not given with the values); 210,000 compounds, 0.42% hits; AID 1224905, 2016;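 active means replicate mean at 85% of control or lower, very high polarization wells dropped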;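 further: wells of about 15 µL received 100 nL stock; the first replicate is given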
Target sequence (P08753 whole entry, looked up): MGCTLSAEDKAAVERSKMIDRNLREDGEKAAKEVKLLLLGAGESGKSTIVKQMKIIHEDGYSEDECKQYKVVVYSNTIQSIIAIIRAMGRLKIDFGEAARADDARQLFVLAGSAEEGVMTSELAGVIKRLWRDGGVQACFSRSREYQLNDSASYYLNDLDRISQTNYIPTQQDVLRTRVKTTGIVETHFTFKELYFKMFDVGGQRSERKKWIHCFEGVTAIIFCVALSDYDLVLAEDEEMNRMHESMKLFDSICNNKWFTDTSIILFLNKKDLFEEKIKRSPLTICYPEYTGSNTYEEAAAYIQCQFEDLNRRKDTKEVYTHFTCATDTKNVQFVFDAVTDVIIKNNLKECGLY
Sa growth 42C = S. aureus growth inhibition at 42 and 30 °C, primary screen, LtaS inhibitor project, RN4220, two temperatures; AID 720641, 2013; OD600, 20 h, 42 °C; hits give low values; relative growth, % (test concentration not listed); 170,000 compounds, 0.53% hits;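 active means growth at 42 °C up to 50% and 20 or more points under that at 30 °C, or under 10% at both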;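 further: 300 nL library stock went into each well; scaled to the means of positive and negative controls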
HCMV UL50-53 inh = inhibitors of HCMV UL50-UL53 interaction, biochemical, HTRF. 190,000 compounds, 0.15% hits. inhibition, % (test concentration not listed). normalized percent inhibition;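 active means both replicates at 50% or more, plus weaker picks with an unusually low signal ratio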;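 further: stock transfer was 100 nL into about 20 µL; 0% = negative control wells and 100% = wells with untagged competitor protein; inactives centre near -12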
Sa growth 42C second temp = further read-out of Sa growth 42C, marked with its call; relative growth, %; measured here: growth at 30 °C;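 optical density after 20 h as mean of two plates; 100% = untreated growth and lower means inhibition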
* marks the source's active call; other numbers are inactive results; . = not tested or not shown; & = joins results of further samples. Only part of the results is shown, so the mix of outcomes need not match the whole.

SMILES | GIV Gai3 FP | Sa growth 42C | Sa growth 42C second temp | HCMV UL50-53 inh
CC(C)OCCCNC1CCN(C)CC1 | 97 | 84 | 85 | -14
CCC1c2cccn2-c2ccccc2CN1C(=O)NC1CCCC1 (centres undefined) | 100 | . | . | -25
COCc1c(C)cc(C)c(C=C(C#N)C#N)c1C | 103 | 83 | 72 | 1
O=C(c1cc2ccccc2oc1=O)N1CCC2(CC1)OCCO2 | 104 | 94 | 104 | -2
O=C(CN1CCCC1)c1ccccc1Br | . | 87 | 88 | -17
N#CC(C#N)=Cc1cc2c(cc1Br)OCO2 | . | 95 | 85 | -9
O=C(N[C@H]1CN2CCC1CC2)c1ccc(Cl)cc1 | 93 | . | . | 4&-13
O=c1c2ccccc2nc(-c2ccoc2)n1-c1ccccc1 | 104 | 97 | 103 | -13
Cc1ccc(-c2nc(CN3C(=O)CN=C(c4ccccc4)c4ccccc43)c(C)o2)cc1 | 101 | 93 | 69 | -6
O=C1[C@@H]2CCCN2[C@@H](c2ccccc2F)N1c1ccccn1 | 100 | . | . | -24
COc1cccc(C2N3CCCN23)c1OC (centres undefined) | 96 | . | . | -6
O=C1CCCN1C(=O)c1cc(Cl)cc(Cl)c1 | 110 | 127 | 101 | -8
Cc1ccc(OCC(=O)Nc2ccc(Cl)cc2C(=O)c2ccccc2)cc1C | 105 | 104 | 89 | -14
O=C(O)[C@@H]1C[C@@H]2CCCC[C@@H]2N1 | . | 101 | 100 | -7
CCSc1ccc(CCN)s1 | 99 | 91 | 91 | -17
NC(=O)c1cc(N2CC2)c([N+](=O)[O-])cc1[N+](=O)[O-] | 99 | . | . | -132
CC(C(=O)N1CCCc2ccccc21)N1CC=C(c2ccccc2)CC1 (centres undefined) | . | 93 | 83 | -5
CCNc1nc(Cl)nc(NCC)n1 | . | 85 | 96 | -1
Cc1nn(CCC#N)c2c1P(=S)(N1CCCCC1)OC(c1ccccc1)=N2 (centres undefined) | . | 81 | 94 | -21
C=CCC1(C2CCCC2)C(=O)NC(=O)NC1=O | . | 112 | 110 | 10
CCC12CN3CCN(CC(C3)/C1=N/NC(=O)c1ccncc1)C2 | 102 | 94 | 95 | -10
NN=C(N)N | 99&103 | . | . | -5&-54&-15&-17
COC(=O)[C@@]1(C#N)C(c2cc(OC)cc(OC)c2)[C@@H](C#N)N2c3ccccc3C=C[C@@H]21 (some centres undefined) | . | 91 | 44 | -37
CCCNCCc1ccccc1 | 104 | 96 | 87 | -20
Cc1c2cnn(CC(=O)N3CCC4(CC3)OCCO4)c(=O)c2c(C)n1Cc1ccccc1F | 102 | 94 | 84 | .
Cc1cccc(-n2c(/C=C\c3cccc(Br)c3)nc3ccccc3c2=O)c1 | 108 | 108 | 96 | .
C=CCSc1nc2ccccc2c(=O)n1-c1ccccc1 | . | 99 | 84 | -3
Cc1n[nH]c(C)c1CCN | 109 | 120 | 92 | -19
Fc1ccccc1CCNCc1ccco1 | 111 | 106 | 98 | 24
CN1C(=O)COc2c(C(=O)NC3CN4CCC3CC4)cc(Cl)cc21 (centres undefined) | . | 93 | 85 | -66
COc1cc(CN2CCN(C(=O)Cc3ccccc3)CC2)cc(OC)c1OC | 98 | 99 | 93 | -8
C=C(C)Cc1c(COC)nc(-c2ccc(C)c(Cl)c2)nc1OC(=O)N(C)C | 103 | 105 | 89 | -20
CN(C)C(=O)Oc1ccc(-c2ccccc2)cc1 | 100 | 103 | 99 | -24
CC1(C)COP(=S)(C(Nc2ccc(Cl)cc2)c2ccc(O)cc2)OC1 (centres undefined) | 99 | 90 | 65 | .
O=P(CN1CCN(c2ccccc2)CC1)(N1CCCCC1)N1CCCCC1 | . | 91 | 93 | -6
CC(C)(C)c1ccc(/C=C2\C(=O)C3CCN2CC3)cc1 | 105 | 105 | 76 | 1
CN=C1N=P(NC)(NC)N=C(c2ccccc2)N1 | . | 86 | 94 | -8
Cc1oc(-c2ccc(Cl)cc2)nc1CN1C(=O)CN=C(c2ccccc2)c2cc(Cl)ccc21 | 103 | 101 | 87 | -4
COc1cc(C2C(C#N)=C(N)Oc3c2c(=O)oc2ccccc32)ccc1OC(C)C (centres undefined) | 105 | . | . | -11
Nc1ccc(CCN2CCCCCC2)cc1 | 105 | 92 | 86 | -21
CC(C)(c1ccccc1)c1ccc(O)cc1 | . | 59 | 66 | 0&-23
CCN(CC)C(=O)c1ccc(NC(=O)Cn2nc(-c3ccc(C)cc3)c3ccccc3c2=O)cc1 | 102 | 114 | 90 | -16
Cc1ccc(NC(=O)C2C3c4ccccc4C(c4ccccc43)C2C(=O)O)cc1 (centres undefined) | 97 | 79 | 88 | 2
NCCC1COc2ccccc2O1 (centres undefined) | 100 | 97 | 85 | .
Cc1ccc(-n2c(/C=C/c3cccc(C(F)(F)F)c3)nc3ccccc3c2=O)cc1 | 100 | 103 | 86 | .
COc1ccc(CCNCc2cccnc2)cc1 | 105 | 93 | 89 | -16
COc1ccccc1CCNCc1ccccc1C(F)(F)F | 105 | 80 | 83 | .
CCCCC(C#N)(Cn1cncn1)c1ccc(Cl)cc1 (centres undefined) | 99 | 94 | 77 | -35
CCCCNC(=S)N1CCn2cccc2C1c1cccnc1 (centres undefined) | 103 | 102 | 74 | -14
Cn1c(O)c(C=NCCN2CCN(C(=O)c3ccccc3)CC2)c(=O)n(C)c1=O | 107 | 110 | 96 | -11
O=C(O)C1=CC2c3ccccc3C1c1ccccc12 | . | 122 | 86 | 0
COc1cccc(CN2CCN(Cc3ccccc3)CC2)c1 | 96 | 110 | 101 | 0
CCOC(=O)C(O)(c1cn(C)c2ccccc12)C(F)(F)F (centres undefined) | 99 | 103 | 90 | -17
COc1ccc(C2=NC3(CCNCC3)NC2=S)cc1 | 106 | 81 | 94 | -38
CCCOc1ccc(C2C(C#N)=C(N)Oc3c2c(=O)oc2ccccc32)cc1OC (centres undefined) | 101 | . | . | 5
CN1C(=O)NC(=O)/C(=C/c2ccco2)C1=O | 100 | 98 | 73 | -2
O=P(OCC(F)(F)F)(N1CCCCC1)N1CCCCC1 | 98 | 74 | 92 | 9
CNC(=O)O/N=C(\N)c1nn(C(=O)NC)cc1Br | 106 | 87 | 85 | -20
O=P12CN3CN(CN(C3)C1)C2 | . | 76 | 86 | -6
Clc1cccc(C2NCCc3[nH]cnc32)c1 (centres undefined) | 101 | . | . | -21
Continued:
SMILES | GIV Gai3 FP | Sa growth 42C | Sa growth 42C second temp | HCMV UL50-53 inh
OC1CCN(CCc2ccccc2)CC1 | 111 | 104 | 107 | 4
Cc1ccc(Cn2cccc(C(=O)Nc3ccc4c(c3)OCO4)c2=O)cc1 | 99 | 158 | 87 | .
O=C(c1ccc2c(c1)N(Cc1ccc(F)cc1Cl)C(=O)c1ccccc1S2)N1CCC2(CC1)OCCO2 | 98 | 91 | 87 | .
CCN(CC)C(=O)c1ccc(NC(=O)c2ccc(-c3nn(C)c(=O)c4ccccc34)cc2)cc1 | 102 | 100 | 88 | -30
CC(C)c1ccccc1NC1=NCCS1 | 110 | 121 | 70 | -6
Cc1ccc(CN(C)C)c(OC(=O)N(C)C)c1 | 98 | 99 | 86 | .
CC(C)[N+](C)(CCC(C(N)=O)(c1ccccc1)c1ccccc1)C(C)C | . | 99 | 100 | -3&-14
Cc1ccccc1CN1CCN(c2ccc(Cl)cc2)CC1 | 106 | 105 | 96 | .
COC(=O)c1cc(C=C(C#N)C#N)cn1C | 110 | 101 | 78 | -27
C1=C(c2c[nH]c3ccccc23)CCN(Cc2ccccc2)C1 | 104 | -0.9* | -0.9* | -74
COC(=O)CC1=C(C(=O)OC)C2(C(=O)Nc3ccccc32)C(C(=O)OC)=C(N)O1 (centres undefined) | 97 | 98 | 81 | .
C=CC1CN2CCC1C(C(O)c1ccnc3ccc(OC)cc13)C2 (centres undefined) | 104 | 93 | 93 | 5
O=C1NC(=O)C(c2ccccc2)C(=O)N1 | 99 | 90 | 94 | -1
CCOP(=S)(OCC)Oc1cc(-c2ccccc2)on1 | . | 93 | 87 | -1
CC1=C(C(=O)OC(C)C)C2(C(=O)Nc3ccccc32)C(C(=O)OC(C)C)=C(N)O1 (centres undefined) | 97 | . | . | -17
CC[C@@]12CCCN3CC[C@]4(c5cccc(OC)c5N(C(C)=O)[C@@H]4CC1)[C@H]32 | . | 86 | 85 | -10
CCCC(=O)c1ccc(N2CCN(CC)CC2)c(F)c1 | 99 | 95 | 50 | -12
COc1ccccc1-n1c(CSc2ccccn2)nc2ccccc2c1=O | . | 96 | 93 | 9
CCOC(=O)c1c(CN2CCC(C(=O)OCC)(c3ccccc3)CC2)n(-c2ccccc2)c2cc(Br)c(O)cc12 | 98 | . | . | -23
CCN1C(=O)C(=Cc2cc(C)n(C3CC3)c2C)C(=O)N(CC)C1=S | 139 | 106 | 92 | -4
CCN(CC)C(=O)c1ccc2c(c1)N(CC(=O)NCc1ccc(C(C)C)cc1)C(=O)C1CCCCN21 (centres undefined) | 108 | . | . | -31
CN(C)P1(=S)C2=C(N3CCCCC3)CC(C)(C)CC2=NN1c1ccccc1 (centres undefined) | . | 96 | 92 | -3
Cc1nc2nc(-c3ccccc3)nn2c(C)c1CC(=O)N1CCN(C)CC1 | 107 | . | . | -18
CSc1ncccc1C1=N/C(=C\c2ccc(Cl)cc2)C(=O)O1 | 102 | 99 | 86 | -10
O=c1cccc2n1CC1CC2CN(S(=O)(=O)c2ccccc2)C1 (centres undefined) | 103 | 107 | 93 | -14
Cc1c(CCN)c2cccc3c2n1CCC3 | 105 | 108 | 94 | -5
COc1ccc(C2C(C#N)=C(N)Oc3c2c(=O)oc2ccccc32)c(OC)c1OC (centres undefined) | 102 | . | . | -7
Cc1nn(-c2ccccc2)c2c1C(c1ccc(Cl)cc1)SCC(=O)N2 (centres undefined) | 96 | . | . | -10
c1ccc(CC(NCc2ccco2)c2ccccc2)cc1 (centres undefined) | 105 | 99 | 90 | -12
CCOc1nc(NCc2ccco2)nc(N2CC3CC(C2)c2cccc(=O)n2C3)n1 (centres undefined) | 103 | 98 | 95 | -17
O=c1cccc2n1CC1CC2CN(CCO)C1 (centres undefined) | . | 99 | 94 | 0
NC(N)=Nc1ccc2[nH]c3c(c2c1)C[C@@]1(O)[C@H]2Cc4ccc(O)c5c4[C@@]1(CCN2CC1CC1)[C@H]3O5 | 104 | . | . | -11
Cc1cc(C(=O)Nc2ccc3c(c2)OCCO3)nn1C(C)(C)C | 101 | 84 | 84 | 27
Cc1ccc2[nH]c(C)c(C(O)CN3CCC(C)CC3)c2c1 (centres undefined) | 108 | . | . | 2
CC[C@H]1CN2CCC3(C(=O)Nc4ccccc43)C2C[C@@H]1/C(=C\OC)C(=O)OC (some centres undefined) | . | 99 | 85 | 3
CN1CCN(Cc2cc(Br)cs2)CC1 | . | 99 | 90 | 2

Shown with two lines to a compound: entries from further up.
Results follow in this order: GIV Gai3 FP | Sa growth 42C | Sa growth 42C second temp | HCMV UL50-53 inh
CSc1ncccc1C1=N/C(=C\c2ccc(Cl)cc2)C(=O)O1
 : 102 | 99 | 86 | -10
O=c1cccc2n1CC1CC2CN(S(=O)(=O)c2ccccc2)C1 (centres undefined)
 : 103 | 107 | 93 | -14
Cc1c(CCN)c2cccc3c2n1CCC3
 : 105 | 108 | 94 | -5
COc1ccc(C2C(C#N)=C(N)Oc3c2c(=O)oc2ccccc32)c(OC)c1OC (centres undefined)
 : 102 | . | . | -7
Cc1nn(-c2ccccc2)c2c1C(c1ccc(Cl)cc1)SCC(=O)N2 (centres undefined)
 : 96 | . | . | -10
c1ccc(CC(NCc2ccco2)c2ccccc2)cc1 (centres undefined)
 : 105 | 99 | 90 | -12
CCOc1nc(NCc2ccco2)nc(N2CC3CC(C2)c2cccc(=O)n2C3)n1 (centres undefined)
 : 103 | 98 | 95 | -17
O=c1cccc2n1CC1CC2CN(CCO)C1 (centres undefined)
 : . | 99 | 94 | 0
NC(N)=Nc1ccc2[nH]c3c(c2c1)C[C@@]1(O)[C@H]2Cc4ccc(O)c5c4[C@@]1(CCN2CC1CC1)[C@H]3O5
 : 104 | . | . | -11
Cc1cc(C(=O)Nc2ccc3c(c2)OCCO3)nn1C(C)(C)C
 : 101 | 84 | 84 | 27
Cc1ccc2[nH]c(C)c(C(O)CN3CCC(C)CC3)c2c1 (centres undefined)
 : 108 | . | . | 2
CC[C@H]1CN2CCC3(C(=O)Nc4ccccc43)C2C[C@@H]1/C(=C\OC)C(=O)OC (some centres undefined)
 : . | 99 | 85 | 3
CN1CCN(Cc2cc(Br)cs2)CC1
 : . | 99 | 90 | 2

(next part)
SMILES | GIV Gai3 FP | Sa growth 42C | Sa growth 42C second temp | HCMV UL50-53 inh
CCN1CCN(Cc2cc(C(C)(C)C)c(O)c(C(C)(C)C)c2)CC1 | 95 | 101 | 95 | -11
COc1cc(C=C2C(=O)NC(=O)NC2=O)ccc1OS(=O)(=O)c1ccccc1[N+](=O)[O-] | 71* | . | . | 51*
Clc1ccc(N2CC3CCC(C2)N3)nn1 | 102 | . | . | -25
COC(=O)c1cn(CCCOc2ccccc2OC)c2ccccc12 | . | 103 | 83 | -13
CCCCCC1C(=O)NC(=S)N(c2ccccc2)C1=O (centres undefined) | 102 | . | . | -13
CC(=O)N1CN2CN(C(C)=O)CC(C(=O)c3ccccc3)(C2)C1 | 104 | 105 | 102 | -11
FC(F)=C(F)CCSC1=NCCN1 | 100 | . | . | -19
COc1cccc(N2C(=O)/C(=C/c3c(OC)ccc4ccccc34)C(=O)NC2=S)c1 | 104 | . | . | -24
FC(F)(F)c1ccccc1CNCCc1c[nH]c2ccccc12 | . | 111 | 96 | 1
